NS1 function inh: influenza NS1 inhibition. 270,000 tested, 0.4% active. Potency, µM (highest dose often 46.1 µM), for the others: at the highest dose activity, positive = more growth. AID 2326. S. cerevisiae slowed by influenza A NS1, growth recovery by OD600; active means well fitted rising curve with a large enough effect; inconclusive means small, poorly fitted or top-dose-only effect; inactive means no such curve, though single readings can be large or run the other way; also: nearly all actives have a fitted effect of over 50% in size
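Read-out: OD600 growth recovery of NS1-expressing budding yeast. Cells grown overnight at 30C in -URA glucose medium, washed, resuspended and diluted 1:100 in 2% galactose assay medium, pH 6.0. Same strain lacking NS1 served as positive control.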
Lassa entry inh: Lassa virus entry inhibition. AID 540256. Potency, µM (top dose mostly 37.9 µM), for inactives: top-dose activity change, negative = inhibition, hits mostly inhibitors. 300,000 tested, 1.2% active. Lassa virus pseudotype entry inhibition, cell reporter; control for the full effect not named in the record; active means well fitted inhibition curve with a large enough effect; inconclusive means small, poorly fitted or top-dose-only effect, or effect the other way; inactive means flat fitted curve, though single readings scatter; tested in HEK293 cells; also: % is scaled to controls: 0 for no effect and ±100 for the full control effect; nearly all actives have a fitted effect of over 50% in size; luciferase read-out
Cruzain Triton: inhibitors of Trypanosoma cruzi cruzain with detergent | Potency, µM, for the others: max response, negative = inhibition, usual class: inhibitors | purified cruzain, Z-FR-AMC fluorescence, 0.01% Triton | 200,000 tested, 0.43% active;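 also: plate controls were neutral wells for no effect and buffer without enzyme for full effect; nearly all actives have a fitted effect of over 40% in size; top concentration of the series not given in the record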
Target sequence (P25779 123-467 limits assumed): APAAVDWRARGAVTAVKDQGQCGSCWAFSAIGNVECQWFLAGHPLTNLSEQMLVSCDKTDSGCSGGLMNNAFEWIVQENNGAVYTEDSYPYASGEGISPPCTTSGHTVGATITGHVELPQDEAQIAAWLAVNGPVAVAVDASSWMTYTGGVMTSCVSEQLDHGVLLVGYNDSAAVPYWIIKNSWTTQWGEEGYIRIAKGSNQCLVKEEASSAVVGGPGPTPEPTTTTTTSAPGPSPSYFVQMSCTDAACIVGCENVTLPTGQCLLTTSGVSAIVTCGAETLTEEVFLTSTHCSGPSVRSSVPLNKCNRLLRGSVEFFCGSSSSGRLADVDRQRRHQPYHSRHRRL
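Cysteine protease activity tested under reducing, mildly acidic conditions (100 mM sodium acetate pH 5.5, 5 mM DTT) plus 0.01% Triton X-100. Cruzain 1.5 nM; substrate Z-FR-AMC 2 uM; 15 min compound preincubation at room temperature.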
RE007 growth inh: less growth of the S. pombe RE007 Vpr strain. S. pombe RE007 Vpr strain, BacTiter-Glo ATP luminescence, 24 h; control for the full effect not named in the record. 360,000 tested, 0.21% active. Potency, µM (titrated, usually from 92.2 µM), for the others: at the top dose activity change, negative = less growth. AID 651644; active = well fitted falling curve with a large enough effect; inconclusive = small, poorly fitted or top-dose-only effect; inactive = no such curve, though single readings can be large or run the other way;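 also: % is scaled to controls: 0 for no effect and ±100 for the full control effect; nearly all actives have a fitted effect of over 50% in size; the assay follows cell death caused by Vpr and the record does not say whether a fall means rescue or toxicity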
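Fission yeast strain RE007, carrying one chromosomally integrated HIV-1 vpr copy, was seeded at OD 0.01 in PMG+AL medium with 23 nL pinned compound. After 24 h at 30 °C and 99% humidity, viability was read by BacTiter-Glo luminescence.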
StopGo reporter: FMDV 2A StopGo reporter, luciferase signal. human cells with a luciferase reporter of 2A StopGo recoding; control for the full effect not named in the record. Potency, µM (highest dose often 57.9 µM), for inactives: at the top dose signal change, negative = less light. 410,000 tested, 1.2% active; active = well fitted falling curve with a large enough effect; inconclusive = small, poorly fitted or top-dose-only effect; inactive = no such curve, though single readings can be large or run the other way; tested in HEK293T cells; also: % is scaled to controls: 0 for no effect and ±100 for the full control effect; nearly all actives have a fitted effect of over 45% in size; luciferase light after 4 h
SARS PLP yeast: inhibitors of SARS-CoV papain-like protease in yeast. 330,000 tested, 0.19% active. AID 485353. Potency, µM (series often up to 32.9 µM), for inactives: at the highest dose activity, positive = growth rescue. S. cerevisiae expressing SARS-CoV PLpro, growth rescue; control for the full effect not named in the record; active means well fitted rising curve with a large enough effect; inconclusive means small, poorly fitted or top-dose-only effect; inactive means no such curve, though single readings can be large or run the other way; also: 0% is about no effect; nearly all actives have a fitted effect of over 55% in size; growth read by luminescence after 48 h
Marburg entry inh: blocks Marburg virus binding to or entry into cells; Marburg virus pseudotyped entry inhibition, cell reporter; control for the full effect not named in the record; about a third of the inactives were read at about 46 µM; Potency, µM (titrated, usually from 37.8 µM), without a hit: at the top dose activity change, negative = inhibition, usual class: inhibitors; 300,000 tested, 1.8% active; AID 540276; active = well fitted inhibition curve with a large enough effect; inconclusive = small, poorly fitted or top-dose-only effect, or effect the other way; inactive = flat fitted curve, though single readings scatter; tested in HEK293 cells; about a fifth of its hits are not listed in these tables; also: % is scaled to controls: 0 for no effect and ±100 for the full control effect; luciferase read-out
Cruzain noTriton: cruzain (T. cruzi) inhibition without detergent; purified cruzain, Z-FR-AMC fluorescence, no detergent; 200,000 tested, 2.3% active; P25779; Potency, µM, for inactives: max response, negative = inhibition, actives largely listed as inhibitors;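 also: plate controls were enzyme without inhibitor for no effect and buffer without enzyme for full effect; nearly all actives have a fitted effect of over 40% in size; top concentration of the series not given in the record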
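Detergent-free condition (0.00005% Triton X-100) in acetate buffer pH 5.5 with DTT. 1.5 nM enzyme and compound were pre-mixed 15 min, then 2 uM Z-FR-AMC substrate added; reaction progress from fluorescence change between first and third reads (60 s).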
Starred values were filed as active, the others as inactive; ? = inconclusive; . = not tested or not shown; & = joins results of further samples; [ ] = dose if it differs, or a comment. Unless noted, calls follow the shape of the dose curve; as a rule, active = well fitted curve in the direction sought with a large enough effect; inconclusive = small, poorly fitted or top-dose-only effect, or another doubt; inactive = no such curve, though single readings can be large; an effect the other way counts as inactive or inconclusive. Potency is read from the fitted curve at half-maximal effect. Rows are unselected; overall some 4.8% were active at least once.

Under each structure – NS1 function inh	Lassa entry inh	Cruzain Triton	RE007 growth inh	StopGo reporter	SARS PLP yeast	Marburg entry inh	Cruzain noTriton
Nc1ccc(CCc2ccccn2)cc1
    .	?	.	-24%	27%	.	-1%[46.1 µM]	.
COc1ccc(C2N(c3cc(Cl)ccc3OC)C(=O)C3CCCN32)cc1 (stereo not given)
    -43%	.	1.4%	-13%	-3%	0%	.	-10%
CCOC(=O)c1cnc2c(Cl)cccc2c1NCCN1CCOCC1
    10%	0%[46.1 µM]	0.3%&-1.6%	4%	-7%&-18%	13%	0%&0%	-8%&-8%
CCOc1cc(N2CCOCC2)c(OCC)cc1NC(=O)[C@H](C)N1C(=O)C2CC=CCC2C1=O (stereo not given in full)
    .	.	.	-7%	5%	-1%	-11%[46.1 µM]	.
COc1ccc(-c2n[nH]c(=S)n2-c2ccc(C)cc2C)cc1
    9%	.	.	7%	-17%	-2%	.	.
O=C1C2C(c3ccccc3)CC=CC2[C@H](c2ccoc2)N1Cc1ccccc1 (stereo not given in full)
    -15%	.	.	-2%	-22%	-11%	.	.
COCc1cc(=O)n2[nH]cc(-c3ccsc3)c2n1
    0%	-1%	.	-6%	4%	-1%	4%	.
COc1ccc(-c2c3c(=O)n(C)c(=O)n(C)c3cn2N2CCOCC2)cc1
    3%	22%	3.3%	3%	-9%	7%	-13%	-7%
Cc1ccc(NC(=O)CSc2ccccc2)cc1S(=O)(=O)N1CCCCC1
    .	?	.	7%	?	-2%	?	.
Cc1ccc(CCNc2ccccc2)c[n+]1[O-]
    6%	5%	1.2%	-4%	29%	7%	18%	-5%
Cc1nc2cc(O)ccc2n1C
    -5%	10%	1.2%	-12%	3%	?	0%	-3%
CC1(C)CC(=O)C2=C(C1)OC(N)=C([N+](=O)[O-])C2c1cccs1 (stereo not given)
    1%	4%	-7.2%	-7%	-8%	-1%	6%	-17%
CCc1nc(NCCCCCO)c2nnn(Cc3ccccc3F)c2n1
    -5%	1%	1.4%	3%	-22%	13%	-1%	22%
COc1ccc(-c2nc3sc(CCNS(=O)(=O)c4c(C)cc(C)cc4C)c(C)n3n2)cc1
    .	-19%[46.1 µM]	-4.0%	.	17%	.	.	?
O=C1CSC2(C(=O)N(Cc3cccc(C(F)(F)F)c3)c3ccccc32)N1c1ccc(F)c(F)c1 (stereo not given)
    .	-16%[46.1 µM]	-9.5%	.	-17%	.	.	5%
c1coc(CNc2ncnc3sc4c(c23)CCCCC4)c1
    -75%	0%	-19%	-23%	?	-7%	-10%	-26%
CC(C)(C)NC(=O)NC(=O)COC(=O)c1ccc2c(c1)S(=O)(=O)N=C1CCCCCN12
    -19%	-6%	-2.2%	-12%	-13%	16%	-6%	7%
COc1ccc(NC(=O)CSc2nc(C)cs2)cc1
    0%	2%[46.1 µM]	.	76%	37%[activator]	-5%	?	.
COc1cc(CN(C)C(=O)C(=O)c2c[nH]c3ccccc23)ccc1O
    .	3%[46.1 µM]	.	-1%	18%	.	?	.
CCOc1ccc(N/C=C/C(=O)c2ccccc2)cc1
    12%	7.1µM*	.	-9%	10µM*	-1%	?	.
COc1ccccc1C(=O)N=C1SC2CS(=O)(=O)CC2N1c1ccccc1 (stereo not given)
    -5%	.	.	10%	9%	1%	0%[46.1 µM]	.
O=C(NCC1CCC(C(=O)O)CC1)c1cccnc1 (stereo not given)
    -10%	26%	-5.5%	-7%	23%	1%	4%	10%
O=C(O)CNC(=O)c1ccc(NC(=O)/C(=C/c2ccccc2)NC(=O)c2ccccc2)cc1
    0%	24%[46.1 µM]	.	8%	-11%	1%	9%[46.1 µM]	.
Cc1ccc(-c2nnc(NC(=O)c3c(F)cccc3Cl)s2)cc1
    8%	.	.	11%	-15%	1%	.	.
CCc1ccc2oc(-c3cccc(N)c3)nc2c1
    -66%	?	-9.0%	10µM*	-66%	-4%	.	5%
CCOC(=O)/C=c1\s/c(=C(\C#N)C(=O)OCC)n(-c2ccccc2)c1=O
    2%	6%	0.1%	7%	-18%	2%	-6%[46.1 µM]	3%
O=C(NNC(=O)c1ccccc1Br)c1cccc(Cl)c1
    -78%	4%	2.6%	-1%	30%[activator]	0%	?	-4%
CCOC(=O)c1cccc(S(=O)(=O)N(CCO)Cc2cc3cc(OC)c(OC)cc3[nH]c2=O)c1
    -1%	-29%[14.3 µM]	-4.4%	9%	-16%	6%	-3%	0%
COc1cc(/C=N/NC(=O)c2cccnc2)ccc1OC(=O)c1ccc2c(c1)OCO2
    16%	-9%	-0.8%	16%	22%	2%	2%	7%
Cc1ccnc(NC(=O)Nc2ccc(F)cc2)c1
    -10%	-22%	-1.6%	-30%	33%[activator]	-1%	?	-13%
COc1ccc(C(=O)Nc2ccc(-c3ccc(NC(=O)c4ccc(OC)cc4)c(OC)c3)cc2OC)cc1
    17%	0%	-3.6%	.	-7%	-20%	?	-19%
COc1ccc([N+](=O)[O-])cc1NC(=O)Cc1noc2ccccc12
    .	?	.	2%	-4%	0%	-4%[46.1 µM]	.
O=C(Cn1nnc(-c2ccc(CN3CCOCC3)cc2)n1)N(c1ccccc1)c1ccccc1
    1%	-13%	.	3%	-14%	0%	?	.
CCOc1ccccc1C1C(C(N)=O)=C(C)Nc2nc(-c3ccccc3Cl)nn21 (stereo not given)
    -2%	0%	2.1%&-0.4%	-2%	20%&2%	-1%	2%	9%&-4%
CN(C(=O)c1ccc(NC(=O)Cc2ccc(NC(=O)C3CCCN(C(=O)C4CCCC4)C3)cc2)cc1)C1CC1 (stereo not given)
    .	.	.	-5%	-12%	-4%	0%	.
O=C(Nc1ccc(N2CCN(Cc3ccccc3)CC2)cc1)c1cccnc1
    0%	-21%	3.5%	-13%	-25%	3%	-13%	?
CCOc1ccc(CNCc2c(C(=O)O)c(C)n(Cc3ccc(F)cc3Cl)c2C)cc1
    .	8%[46.1 µM]	0.1%	.	-23%	.	?	-7%
CCN1C(=O)C2C(C1=O)N1C(c3ccccc3)C3C(=O)N(CC)C(=O)C3N1C2c1ccccc1 (stereo not given)
    -3%	29%	3.3%	-1%	-2%	-5%	-18%	-6%
CN=C1CC(C)(C)CC(=O)/C1=C(/O)CCC(=O)NC
    -1%	9%	-3.0%	-9%	6%	8%	-6%	-1%
COc1ccc(C2=C(C)C(N3CCN(C(=O)c4ccco4)CC3)=NS2(=O)=O)cc1
    2%	8%[46.1 µM]	.	5%	-17%	0%	3%[46.1 µM]	.
CC1=NN(c2ccccc2)C(=O)/C1=C/C=C/c1ccccc1
    -8%	-21%	-6.3%	2%	35µM*	-5%	?	?
O=C1NCCCCC1NC1CC(=O)N(c2ccccc2)C1=O (stereo not given)
    -8%	18%	3.1%	-27%	-11%	-14%	5%	4%
CCOC(=O)c1sc(NC(=O)Nc2ccccc2)cc1C
    -19%	14µM*	-16%	-2%	38%[activator]	-14%	16µM*	0%
CCOC(=O)C1=C(C)NC(=O)NC1c1ccc(-c2ccc(Cl)cc2)o1 (stereo not given)
    -5%	-3%	.	5%	?	0%	?	.
COC(=O)c1ccc(CSc2nc3c([nH]c4ccccc43)c(=O)n2-c2cccc(Cl)c2)o1
    .	?	-1.8%	.	-21%	.	.	8%
COc1ccccc1CCNC(=O)C(=O)NCC(c1cccnc1)N1CCN(c2ccccc2)CC1 (stereo not given)
    .	?	-2.3%	.	?	.	.	14%
Cc1nn(C)c(C)c1S(=O)(=O)N(CC(=O)Nc1ccc(F)cc1F)c1ccc(C(C)C)cc1
    .	5%[46.1 µM]	-0.9%	.	-8%	.	-2%[46.1 µM]	4%
Cc1ccccc1OCc1nnc(SCC(=O)Nc2ccc3c(c2)oc2ccccc23)n1C
    -19%	-9%	0.8%	-11%	17%	13%	13%	20µM*
COCc1c(C(=O)N/N=C(\C)c2ccc(Cl)s2)nnn1-c1nonc1N
    7%	11%[46.1 µM]	.	-9%	19%	2%	19%[46.1 µM]	.
Cn1c(=O)c(=O)n(C)c2cc(S(=O)(=O)N3CCCC3C(=O)Nc3ccccc3F)ccc21 (stereo not given)
    10%	2%[46.1 µM]	-7.5%	5%	-10%&-17%	-4%	?	-3%
CCn1c2ccccc2c2cc(NC(=O)c3cccc([N+](=O)[O-])c3)ccc21
    4%	-15%	4.3%	7%	6%	4%	?	-4%
Cc1cc(C)c(CN2CCC(n3nccc3NC(=O)C3CCOC3)CC2)cc1C (stereo not given)
    15%	6%	.	-28%	-16%	-2%	-19%	.
CSc1ccc(CN2CCN(CCC(C)C)C(CCO)C2)cc1 (stereo not given)
    -6%	.	.	1%	-12%	2%	.	.
COc1ccc2nc(NC(=O)CCN3C(=S)NC(C)(C)CC3C)sc2c1 (stereo not given)
    10%	-10%	6.0%	-6%	30%[activator]	28%	-1%	-29%
CCOc1ccc(-c2noc(CCC(=O)NCCc3ccccc3)n2)cc1OC
    1%	22%	.	1%	19%	-1%	6%	.
CCC(=O)Nc1nc(-c2ccc3c(c2)CC(C)N3S(C)(=O)=O)cs1 (stereo not given)
    -2%	-30%[46.1 µM]	.	-13%	-17%	-1%	?	.
c1cc(CNc2ccc(N3CCOCC3)cc2)ccn1
    13%	0%	2.5%	0%	?	0%	21%[46.1 µM]	-3%
COc1ccccc1CC(=O)Nc1cccc2ccccc12
    15%	-2%	.	-21%	-1%	5%	-7%	.
CN1CCN(c2nc(C(N)=O)cc(-c3ccccc3)n2)CC1
    6%	-1%	-2.6%	27%	-15%	-1%	9%&9%	-9%
COc1cc(/C=C(\NC(=O)c2ccccc2)C(=O)Nc2cccc(O)c2)c([N+](=O)[O-])cc1OC
    9%	-3%	-4.6%	4%	0%	1%	?	-8%
